High-throughput results (PubChem BioAssay)
FGF22 binding: binders of recombinant human FGF22 by thermal shift | Q9HCT0 | SYPRO orange fluorescence; percent of sucrose octasulfate shift, DMSO zero | AID 651658 | calls only at 9.99 µM | 340,000 tested, 1.5% active;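 active means melting point raised past a set limit in the mean and every replicate; three in four hits are not shown here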
Target sequence (Q9HCT0 whole entry, looked up): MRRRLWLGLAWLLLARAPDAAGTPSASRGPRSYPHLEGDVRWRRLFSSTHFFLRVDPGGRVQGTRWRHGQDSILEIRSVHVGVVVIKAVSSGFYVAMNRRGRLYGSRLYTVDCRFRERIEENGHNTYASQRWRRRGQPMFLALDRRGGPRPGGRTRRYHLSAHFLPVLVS
rRNA inh HTS: selective bacterial rRNA inhibition in E. coli. E. coli WT GFP vs humanized-ribosome RFP mutants, fluorescence, 24 h; active compounds read low; DMSO median 0, no signal -100. GFP signal change (wild-type ribosome), % (concentration not given with the values). 350,000 tested, 1.6% active. AID 720706;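 active means significant combined selectivity score with lowered wild-type GFP, culture density cut under 30%, mutant RFP and density less affected; inactive means any of these conditions unmet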; further: one replicate is shown; some compounds called inactive have numbers as strong as hits
AF4-AF9 inh: MLL-AF4/AF9 protein interaction inhibition; 350,000 tested, 0.47% active; inhibition, % at 10 µM; AlphaScreen, biotin-AF4 peptide binding to FLAG-AF9; AID 651704;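 active means every replicate reaching a set inhibition limit, whatever the replicate mean, cut at about 25% in these data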;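 further: 0% = plate neutral control median and 100% = total signal loss; the record names both 10 and 1 µM as test concentration; the first replicate is given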
Target sequence (P42568 whole entry, looked up): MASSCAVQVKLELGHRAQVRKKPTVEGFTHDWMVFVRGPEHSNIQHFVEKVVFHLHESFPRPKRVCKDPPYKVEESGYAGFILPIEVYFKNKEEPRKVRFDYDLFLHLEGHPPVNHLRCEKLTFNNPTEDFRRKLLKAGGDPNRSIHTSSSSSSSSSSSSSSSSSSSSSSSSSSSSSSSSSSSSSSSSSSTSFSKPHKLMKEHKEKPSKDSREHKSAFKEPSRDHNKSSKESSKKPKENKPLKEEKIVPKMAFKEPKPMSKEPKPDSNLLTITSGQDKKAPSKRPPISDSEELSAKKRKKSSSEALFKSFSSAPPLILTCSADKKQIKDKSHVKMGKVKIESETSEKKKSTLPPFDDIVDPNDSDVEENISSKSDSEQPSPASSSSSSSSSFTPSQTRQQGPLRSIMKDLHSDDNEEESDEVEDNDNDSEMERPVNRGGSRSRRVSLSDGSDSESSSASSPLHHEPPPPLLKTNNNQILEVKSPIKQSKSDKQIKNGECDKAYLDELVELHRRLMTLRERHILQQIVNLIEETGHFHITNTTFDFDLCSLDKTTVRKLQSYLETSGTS
rRNA inh HTS OD600: also measured in rRNA inh HTS; calls as there; OD600 change, %; measured here: OD600 growth;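 optical density of the mix in the first replicate; 0 = DMSO median and -100 = no signal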
rRNA inh HTS RFP: recorded beside rRNA inh HTS, whose call it bears; RFP signal change, %; measured here: RFP humanized mutant strains;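 first replicate; 0 = DMSO median and -100 = no signal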
* = called active by the depositor.

Screening COc1ccc2nc(SC(C)C(=O)NC3CCCC3)[nH]c2c1 (stereo not given) returned FGF22 binding inactive, rRNA inh HTS 3, AF4-AF9 inh -1.8, rRNA inh HTS OD600 3 and rRNA inh HTS RFP 1.9.
For C[C@H]1CN([C@@H](C)CO)C(=O)c2cccc(NC(=O)c3ccc(-c4nccs4)cc3)c2O[C@H]1CN(C)Cc1ccc(Oc2ccccc2)cc1 the results were FGF22 binding inactive, rRNA inh HTS 0, AF4-AF9 inh -0.9, rRNA inh HTS OD600 7 and rRNA inh HTS RFP -0.8.
Screening C[C@@H]1CN([C@H](C)CO)C(=O)Cc2cc(NC(=O)c3ccncc3)ccc2O[C@H]1CN(C)C(=O)Nc1ccc(C(F)(F)F)cc1 returned FGF22 binding inactive, rRNA inh HTS 1, AF4-AF9 inh 0.8, rRNA inh HTS OD600 7 and rRNA inh HTS RFP -1.9.
For COc1cccc(CNC(=O)C[C@H]2CC[C@H](NC(C)=O)[C@@H](CO)O2)c1 the results were FGF22 binding inactive, rRNA inh HTS -1, AF4-AF9 inh -1.7, rRNA inh HTS OD600 -3 and rRNA inh HTS RFP -1.5.
Screening C[C@H](CO)N1C[C@H](C)[C@H](CN(C)S(=O)(=O)c2ccc(Cl)cc2)Oc2ccc(NC(=O)CCC(F)(F)F)cc2CC1=O returned FGF22 binding inactive, rRNA inh HTS -4, AF4-AF9 inh 0.2, rRNA inh HTS OD600 -11 and rRNA inh HTS RFP -0.5.
For C[C@@H]1CN([C@H](C)CO)C(=O)c2cc(C#CCN(C)C)cnc2O[C@@H]1CN(C)C the results were FGF22 binding inactive, rRNA inh HTS 4, AF4-AF9 inh -3.0, rRNA inh HTS OD600 17 and rRNA inh HTS RFP 1.3.
O=C(O)[C@H]1[C@H](CO)[C@H]2Cn3c(ccc(-c4cncnc4)c3=O)[C@H]2N1C(=O)C1CCC1 was read as FGF22 binding inactive, rRNA inh HTS 2, AF4-AF9 inh -0.3, rRNA inh HTS OD600 21 and rRNA inh HTS RFP -0.1.
For C[C@@H]1CCCCO[C@H](CN(C)Cc2ccc(Cl)c(Cl)c2)[C@@H](C)CN([C@@H](C)CO)C(=O)c2cc(NC(=O)Nc3cccc4ccccc34)ccc2O1 the results were FGF22 binding inactive, rRNA inh HTS 2, AF4-AF9 inh -0.2, rRNA inh HTS OD600 8 and rRNA inh HTS RFP 2.0.
C[C@@H]1CCCCO[C@H](CN(C)C(=O)C2CCCCC2)[C@H](C)CN([C@H](C)CO)C(=O)c2cc(NS(=O)(=O)c3ccccc3)ccc2O1 was read as FGF22 binding inactive, rRNA inh HTS -7, AF4-AF9 inh 2.9, rRNA inh HTS OD600 -21 and rRNA inh HTS RFP 7.2.
For O=C(C[C@H]1CC[C@H]2[C@@H](COC[C@H](O)CN2C(=O)Nc2ccc(Cl)c(Cl)c2)O1)NCc1ccncc1 the results were FGF22 binding inactive, rRNA inh HTS -52, AF4-AF9 inh 0.3, rRNA inh HTS OD600 -75 and rRNA inh HTS RFP -17.
Screening C[C@H](CO)N1C[C@H](C)[C@H](CN(C)C(=O)Nc2ccccc2)Oc2c(NS(=O)(=O)c3ccccc3)cccc2C1=O returned FGF22 binding inactive, rRNA inh HTS -10, AF4-AF9 inh -9.9, rRNA inh HTS OD600 -13 and rRNA inh HTS RFP 4.7.
`O=C(Cc1ccncc1)NCC[C@H]1CC[C@@H](NC(=O)Nc2cccc(F)c2)[C@H](CO)O1` gave FGF22 binding inactive, rRNA inh HTS 0, AF4-AF9 inh 0.3, rRNA inh HTS OD600 4 and rRNA inh HTS RFP -0.4.
For C[C@@H]1CCCCO[C@@H](CN(C)C(=O)Nc2ccc(F)cc2)[C@@H](C)CN([C@@H](C)CO)C(=O)c2cc(NC(=O)C3CCCCC3)ccc2O1 the results were FGF22 binding inactive, rRNA inh HTS 4, AF4-AF9 inh -0.3, rRNA inh HTS OD600 6 and rRNA inh HTS RFP -1.7.
COC(=O)N(C)C[C@@H]1OCc2ccccc2-c2c(n(C)c3ccccc23)C(=O)N([C@@H](C)CO)C[C@@H]1C was read as FGF22 binding inactive, rRNA inh HTS -3, AF4-AF9 inh -2.7, rRNA inh HTS OD600 0 and rRNA inh HTS RFP -1.1.
Screening COc1ccc2c3c(n(C)c2c1)[C@H](CO)N(Cc1ccncc1)CC31CCN(C(=O)NC(C)C)CC1 returned FGF22 binding inactive, rRNA inh HTS 3, AF4-AF9 inh -2.3, rRNA inh HTS OD600 3 and rRNA inh HTS RFP 0.1.
For CC[C@H](C)[C@H]1CNC(=O)C(=O)N1CC1CCN(CC(C)C)CC1 the results were FGF22 binding inactive, rRNA inh HTS 3, AF4-AF9 inh -6.7, rRNA inh HTS OD600 8 and rRNA inh HTS RFP -0.5.
For Cc1noc(C)c1NC(=O)Nc1ccc2c(c1)C(=O)N([C@@H](C)CO)C[C@H](C)[C@@H](CN(C)C(=O)Nc1ccc(C(F)(F)F)cc1)O2 the results were FGF22 binding inactive, rRNA inh HTS -2, AF4-AF9 inh -0.3, rRNA inh HTS OD600 -1 and rRNA inh HTS RFP 1.5.
C[C@@H]1CCCCO[C@@H](CN(C)C(=O)Cc2ccccc2)[C@H](C)CN([C@H](C)CO)C(=O)c2cc(NC(=O)c3ccncc3)ccc2O1 was read as FGF22 binding inactive, rRNA inh HTS -3, AF4-AF9 inh -1.2, rRNA inh HTS OD600 -1 and rRNA inh HTS RFP -1.3.
For O=C(NCc1ccc(F)cc1)[C@@H]1[C@@H](CO)[C@@H]2Cn3c(cccc3=O)[C@H]1N2Cc1ccncc1 the results were FGF22 binding inactive, rRNA inh HTS 1, AF4-AF9 inh 0.5, rRNA inh HTS OD600 5 and rRNA inh HTS RFP -1.5.
For COc1ccc(C2CC(c3ccccc3Br)=NN2c2ccc(S(N)(=O)=O)cc2)cc1 (stereo not given) the results were FGF22 binding inactive, rRNA inh HTS -2, AF4-AF9 inh -6.3, rRNA inh HTS OD600 -2 and rRNA inh HTS RFP -5.0.
C[C@H](O)C#Cc1ccc2c(c1)O[C@@H](CN(C)Cc1ccc(-c3ccccc3)cc1)[C@@H](C)CN([C@@H](C)CO)S2(=O)=O was read as FGF22 binding inactive, rRNA inh HTS -1, AF4-AF9 inh 2.5, rRNA inh HTS OD600 -25 and rRNA inh HTS RFP 15.
CCCCCCCC(=O)O was read as FGF22 binding inactive, rRNA inh HTS 5, AF4-AF9 inh -2.6, rRNA inh HTS OD600 14 and rRNA inh HTS RFP -6.7.
Screening COc1ccc(S(=O)(=O)N(C)C[C@H]2Oc3ccc(NC(=O)Cc4cn(C)c5ccccc45)cc3C(=O)N([C@H](C)CO)C[C@H]2C)cc1 returned FGF22 binding inactive, rRNA inh HTS -1, AF4-AF9 inh 0.4, rRNA inh HTS OD600 4 and rRNA inh HTS RFP -0.3.
For O=S(=O)(c1ccccc1F)N1CCCCN2[C@H](CO)[C@H](c3ccc(-c4ccccc4)cc3)[C@H]2C1 the results were FGF22 binding inactive, rRNA inh HTS -55, AF4-AF9 inh 2.5, rRNA inh HTS OD600 -56 and rRNA inh HTS RFP -15.
Screening O=C(NC[C@H]1[C@H](c2ccccc2)[C@H](CO)N1CC1CCCC1)c1ccncc1 returned FGF22 binding inactive, rRNA inh HTS 4, AF4-AF9 inh -0.4, rRNA inh HTS OD600 4 and rRNA inh HTS RFP -1.0.
CCNC(=O)C[C@@H]1CC[C@@H]2[C@@H](COc3ccc(NC(=O)C4CCCCC4)cc3C(=O)N2C)O1 was read as FGF22 binding inactive, rRNA inh HTS 0, AF4-AF9 inh -1.2, rRNA inh HTS OD600 -5 and rRNA inh HTS RFP 0.5.
`COCC(=O)N(C)C[C@@H]1Oc2ncc(-c3ccc(C#N)cc3)cc2C(=O)N([C@H](C)CO)C[C@@H]1C` gave FGF22 binding inactive, rRNA inh HTS -3, AF4-AF9 inh -3.2, rRNA inh HTS OD600 -2 and rRNA inh HTS RFP -2.2.
Screening Cc1noc(C)c1NC(=O)N(C)C[C@H]1Oc2ccc(NS(C)(=O)=O)cc2C(=O)N([C@H](C)CO)C[C@@H]1C returned FGF22 binding inactive, rRNA inh HTS 3, AF4-AF9 inh -2.3, rRNA inh HTS OD600 16 and rRNA inh HTS RFP 1.5.
Screening O=C(Nc1ccccc1)N1CCCCN2[C@H](C1)[C@H](c1ccc(C#Cc3ccccc3)cc1)[C@@H]2CO returned FGF22 binding inactive, rRNA inh HTS 7, AF4-AF9 inh -2.6, rRNA inh HTS OD600 7 and rRNA inh HTS RFP 3.4.
`CC1(C(=O)NS(=O)(=O)c2cccc(C#N)c2)CCN1C(=O)CC1CC1` (stereo not given) gave FGF22 binding inactive, rRNA inh HTS 23, AF4-AF9 inh 0.1, rRNA inh HTS OD600 19 and rRNA inh HTS RFP 2.5.
C[C@@H]1CN([C@@H](C)CO)C(=O)Cc2cc(NC(=O)Cn3cnnn3)ccc2O[C@H]1CN(C)C(=O)Nc1ccc2c(c1)OCO2 was read as FGF22 binding inactive, rRNA inh HTS 1, AF4-AF9 inh 0.3, rRNA inh HTS OD600 11 and rRNA inh HTS RFP -1.6.
Screening c1ccc2n[nH]nc2c1 returned FGF22 binding inactive, rRNA inh HTS 12, AF4-AF9 inh -3.0, rRNA inh HTS OD600 13 and rRNA inh HTS RFP 8.0.
C[C@@H]1CN([C@H](C)CO)S(=O)(=O)c2ccc(C3=CCCC3)cc2O[C@@H]1CN(C)S(=O)(=O)c1cn(C)cn1 was read as FGF22 binding inactive, rRNA inh HTS -1, AF4-AF9 inh -1.1, rRNA inh HTS OD600 -10 and rRNA inh HTS RFP -2.0.
CO[C@@H]1CN(C)C(=O)c2ccc(NS(=O)(=O)c3cccc(C)c3)cc2OC[C@H](C)NC[C@@H]1C was read as FGF22 binding inactive, rRNA inh HTS 3, AF4-AF9 inh -1.8, rRNA inh HTS OD600 7 and rRNA inh HTS RFP 1.0.
c1ccc2c(C(c3nnnn3-c3ccc4c(c3)OCCO4)N3CCCCC3)ccnc2c1 (stereo not given) was read as FGF22 binding inactive, rRNA inh HTS -2, AF4-AF9 inh 8.3, rRNA inh HTS OD600 -10 and rRNA inh HTS RFP 0.3.
Screening C[C@H](CO)N1C[C@H](C)[C@@H](CN(C)C(=O)CN2CCOCC2)Oc2cc(C#Cc3cccc(F)c3)ccc2S1(=O)=O returned FGF22 binding inactive, rRNA inh HTS -8, AF4-AF9 inh 2.4, rRNA inh HTS OD600 -19 and rRNA inh HTS RFP 4.5.
Screening Cc1noc(C)c1S(=O)(=O)N(C)C[C@H]1OCCCC[C@@H](C)Oc2ccc(NC(=O)Nc3ccc(C(F)(F)F)cc3)cc2C(=O)N([C@@H](C)CO)C[C@@H]1C returned FGF22 binding inactive, rRNA inh HTS 0, AF4-AF9 inh -1.2, rRNA inh HTS OD600 5 and rRNA inh HTS RFP 0.6.
CCCNC(=O)N1[C@H](C#N)[C@H](c2ccc(C#Cc3cccc(F)c3)cc2)[C@H]1CO was read as FGF22 binding inactive, rRNA inh HTS -55, AF4-AF9 inh -3.2, rRNA inh HTS OD600 -72 and rRNA inh HTS RFP -14.
C[C@@H]1CN([C@H](C)CO)C(=O)c2cc(-c3cccc(C(=O)N(C)C)c3)cnc2O[C@@H]1CN(C)S(=O)(=O)c1ccccc1 was read as FGF22 binding inactive, rRNA inh HTS -3, AF4-AF9 inh -3.6, rRNA inh HTS OD600 -8 and rRNA inh HTS RFP -3.4.
For CC(C)NC(=O)N(C)C[C@H]1Oc2c(NS(=O)(=O)c3cn(C)cn3)cccc2C(=O)N([C@@H](C)CO)C[C@@H]1C the results were FGF22 binding inactive, rRNA inh HTS 4, AF4-AF9 inh -4.6, rRNA inh HTS OD600 14 and rRNA inh HTS RFP -1.0.

Reprinted from the results shown (five entries):
Screening C[C@H](CO)N1C[C@H](C)[C@@H](CN(C)C(=O)CN2CCOCC2)Oc2cc(C#Cc3cccc(F)c3)ccc2S1(=O)=O returned FGF22 binding inactive, rRNA inh HTS -8, AF4-AF9 inh 2.4, rRNA inh HTS OD600 -19 and rRNA inh HTS RFP 4.5.
Screening Cc1noc(C)c1S(=O)(=O)N(C)C[C@H]1OCCCC[C@@H](C)Oc2ccc(NC(=O)Nc3ccc(C(F)(F)F)cc3)cc2C(=O)N([C@@H](C)CO)C[C@@H]1C returned FGF22 binding inactive, rRNA inh HTS 0, AF4-AF9 inh -1.2, rRNA inh HTS OD600 5 and rRNA inh HTS RFP 0.6.
CCCNC(=O)N1[C@H](C#N)[C@H](c2ccc(C#Cc3cccc(F)c3)cc2)[C@H]1CO was read as FGF22 binding inactive, rRNA inh HTS -55, AF4-AF9 inh -3.2, rRNA inh HTS OD600 -72 and rRNA inh HTS RFP -14.
C[C@@H]1CN([C@H](C)CO)C(=O)c2cc(-c3cccc(C(=O)N(C)C)c3)cnc2O[C@@H]1CN(C)S(=O)(=O)c1ccccc1 was read as FGF22 binding inactive, rRNA inh HTS -3, AF4-AF9 inh -3.6, rRNA inh HTS OD600 -8 and rRNA inh HTS RFP -3.4.
For CC(C)NC(=O)N(C)C[C@H]1Oc2c(NS(=O)(=O)c3cn(C)cn3)cccc2C(=O)N([C@@H](C)CO)C[C@@H]1C the results were FGF22 binding inactive, rRNA inh HTS 4, AF4-AF9 inh -4.6, rRNA inh HTS OD600 14 and rRNA inh HTS RFP -1.0.

An excerpt, so the mix of outcomes need not match the whole.
